# High-throughput results (PubChem)
# RGS16-Gao = RGS16-Galphao interaction regulator (human). O15492+P09471. bead-based flow cytometry RGS16-Galphao binding, fluorescence; actives lie on both sides. binding response (% of control), % at 10 µM. 220,000 tested, 0.38% active. AID 1441;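 active = below 25% or above 175%, edge rows of some plates excepted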;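 note: Galphao activated by GDP with aluminum fluoride before binding; 100% = wells without compound and 0% = beads without RGS; some results beyond the cut were filed as inactive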
# GALR2 ag = activates the human galanin receptor 2; O43603; GALR2-expressing cells, agonist activation read-out; activation, %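 (tested at 5 µM)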; 140,000 tested, 0.48% active;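 active = above mean plus 3 SD of all compounds, about 5% in these data, not always enough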;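 note: 0% = vehicle buffer wells and 100% = reference agonist at full effect; tested in CHO reporter cells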
# INS promoter inh = TRM-6 insulin promoter activity inhibition; 130,000 tested, 0.9% active; TRM-6 cells (human fetal islet line), insulin promoter-eGFP reporter, imaging; reporter expression induced with tamoxifen; inhibition, % at 2 µM;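 active = inhibition above the mean plus 3 SD, with well images judged a real hit on visual review, cut at about 60% in these data, passing the limit was not always enough; inconclusive = inhibition over the cutoff but images rejected on review; inactive = inhibition not above the cutoff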
# PKD1 kinase inh = blocks activity of human protein kinase D1; Q15139; PKD1 kinase fluorescence polarization assay; inhibition, %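 (about 10 µM by stock and volumes)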; 200,000 tested, 0.056% active; AID 797;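 active = inhibition of 50% or more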;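 note: controls were vehicle for no effect and a reference inhibitor for full effect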
# Target sequence (Q15139 whole entry, looked up): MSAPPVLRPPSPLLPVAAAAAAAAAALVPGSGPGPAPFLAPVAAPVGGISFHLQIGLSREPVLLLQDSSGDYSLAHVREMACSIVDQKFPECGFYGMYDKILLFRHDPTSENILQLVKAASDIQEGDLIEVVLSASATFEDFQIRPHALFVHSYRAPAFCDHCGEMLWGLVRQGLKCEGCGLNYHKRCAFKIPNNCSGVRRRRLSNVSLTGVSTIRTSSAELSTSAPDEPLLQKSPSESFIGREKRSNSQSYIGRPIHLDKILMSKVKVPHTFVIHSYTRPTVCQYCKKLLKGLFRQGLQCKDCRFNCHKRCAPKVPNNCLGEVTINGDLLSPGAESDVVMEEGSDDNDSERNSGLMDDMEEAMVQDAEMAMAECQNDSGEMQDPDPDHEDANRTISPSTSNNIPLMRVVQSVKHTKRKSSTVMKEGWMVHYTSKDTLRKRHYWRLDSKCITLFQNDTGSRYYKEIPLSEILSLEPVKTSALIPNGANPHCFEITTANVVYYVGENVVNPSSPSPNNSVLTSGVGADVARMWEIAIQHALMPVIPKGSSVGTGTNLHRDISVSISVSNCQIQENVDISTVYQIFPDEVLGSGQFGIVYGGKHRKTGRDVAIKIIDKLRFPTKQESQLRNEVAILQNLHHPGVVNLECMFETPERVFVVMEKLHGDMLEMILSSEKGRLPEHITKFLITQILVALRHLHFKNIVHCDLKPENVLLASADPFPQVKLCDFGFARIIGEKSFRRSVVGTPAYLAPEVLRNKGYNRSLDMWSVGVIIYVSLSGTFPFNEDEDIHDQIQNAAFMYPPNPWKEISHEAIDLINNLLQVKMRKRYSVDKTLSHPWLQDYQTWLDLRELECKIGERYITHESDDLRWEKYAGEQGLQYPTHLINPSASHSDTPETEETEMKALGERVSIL
# HSV replic up = increases HSV replication in cells; HSV replication augmentation in cells, fold increase; maximum fold increase; 220,000 tested, 0.005% active; AID 1956;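 active = peak rise of 1.5-fold or more in the series; inconclusive = self-fluorescent or not available for retest; tested in PC3 cells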;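 note: first round at 10 µM; read as green reporter fluorescence; hits show the peak of a series up to 25 µM; 1 = signal of infected wells without compound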
# INS promoter inh cell count = recorded beside INS promoter inh, whose call it bears; normalized cell count, %; measured here: cell count, toxicity; reference of the scale not given here;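 cells exposed to compound for 48 h; stained nuclei by imaging scaled within each plate; lower means fewer cells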
# HSV replic up primary fold = also measured in HSV replic up; calls as there; fold increase; compound at 10 µM; measured here: primary screen fold increase 10 uM; tested in PC3 cells;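 GFP signal in the first replicate; 1 = infected wells without compound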
# Numbers without * were called inactive; i = inactive; ? = inconclusive; . = no result given.
SMILES,RGS16-Gao,GALR2 ag,INS promoter inh,INS promoter inh cell count,PKD1 kinase inh,HSV replic up,HSV replic up primary fold
COC(=O)C1=NN(C(C)(C)CC(C)=O)C2C(=O)N(C3CCCCC3)C(=O)C12 (centres undefined),109,.,.,.,6,i,0.9
O=C(NC1CC1)C1=COCCO1,98,-1.0,5,68,-8,i,1
C/C(=N\NC(=O)c1ccc(F)cc1)c1ccc(N2CCOCC2)cc1,101,.,.,.,-6,i,0.77
O=C(CSc1n[nH]c(-c2ccccc2)n1)Nc1ncc(Br)cc1Br,102,-1.6,0,86,-5,i,0.86
O=C(NC1=NCCS1)[C@H](Cc1ccccc1)N1C(=O)c2ccccc2C1=O,78,-1.7,13,99,-4,i,0.89
CC(C)OC(=O)NCCOC(=O)Nc1cccc(Cl)c1,97,-2.4,64,130,-12,i,0.79
COc1ccccc1Nc1nc2nonc2nc1N1CCCCC1C (centres undefined),104,0.9,8,108,-4,i,1
O=C1CN(C(=O)COC(=O)/C=C/c2ccc(S(=O)(=O)N3CCOCC3)cc2)c2ccccc2N1,107,.,.,.,4,i,0.76
O=S(=O)([N-]c1nc2ccccc2nc1-[n+]1ccc(CCCc2ccccc2)cc1)c1cccs1,94,.,.,.,.,i,1.1
CCc1ccc(OCC(=O)NN2Cc3ccccc3C2=N)cc1,105,.,.,.,-3,i,1
O=C(O)CC1=C(O)C(=O)N(c2ccccc2)C1c1ccc(Br)cc1 (centres undefined),102,0.0,0,94,-6,i,0.96
O=C(NC(=S)Nc1cccc(Cl)c1N1CCOCC1)c1cccs1,103,.,0,109,4,i,0.93
Cc1cc(=O)oc2cc(OCc3nnc(-c4ccccc4Br)o3)ccc12,101,-1.3,.,.,13,i,0.74
O=C(NCC1CCCO1)c1sc(=S)n2c1[nH]c(=O)c1ccc(C(=O)N3CCCCC3)cc12 (centres undefined),97,-1.0,29,83,-44,i,1.1
O=C(CCc1ccccc1)Nc1cccc(-c2nnc(-c3ccco3)o2)c1,98,-1.6,60,155,-3,i,0.74
COc1ccc(-n2nc(C(=O)Nc3nc4ccc(OC)cc4s3)c3ccccc3c2=O)c(OC)c1,100,-1.2,34,99,-2,i,0.96
COCCn1c(C)cc(C(=O)COC(=O)CCc2ccc(S(=O)(=O)N3CCOCC3)cc2)c1C,101,-1.1,23,72,-5,i,0.65
CC1(CCc2ccc3c(c2)OCO3)NC(=O)c2ccccc2N1 (centres undefined),100,-2.3,-37,121,-10,i,0.71
CC(NC(=O)c1ccc2c(c1)OCCO2)c1ccc(S(N)(=O)=O)cc1 (centres undefined),102,.,-23,108,-7,i,0.91
Cc1cccc(Cc2cnc(NC(=O)c3ccc(C)o3)s2)c1,98,0.2,25,137,1,i,0.96
CC(=O)COC(=O)c1cccc(N2C(=O)C3C4C=CC(C4)C3C2=O)c1 (centres undefined),113,-1.2,.,.,-1,i,0.94
COC(=O)c1scc(C)c1NC(=O)Cc1ccccc1,115,-1.3,-7,96,-14,i,0.97
COc1ccc(C2Nc3ccccc3C(=O)N2Cc2ccco2)cc1COc1ccc(F)cc1 (centres undefined),97,-1.2,-24,98,1,i,0.95
CCOC(=O)C1CCCN(CC(O)COCc2ccc3c(c2)OCO3)C1 (centres undefined),99,.,27,87,-7,i,0.99
O=C1c2ccccc2C(=O)N1CCc1c[nH]c2ccc(O)cc12,100,.,.,.,-1,i,0.87

# Shown with two lines to a compound: entries from further up
# Below each compound: RGS16-Gao | GALR2 ag | INS promoter inh | INS promoter inh cell count | PKD1 kinase inh | HSV replic up | HSV replic up primary fold
> O=C(CSc1n[nH]c(-c2ccccc2)n1)Nc1ncc(Br)cc1Br
 : 102 | -1.6 | 0 | 86 | -5 | i | 0.86
> O=C(NC1=NCCS1)[C@H](Cc1ccccc1)N1C(=O)c2ccccc2C1=O
 : 78 | -1.7 | 13 | 99 | -4 | i | 0.89
> CC(C)OC(=O)NCCOC(=O)Nc1cccc(Cl)c1
 : 97 | -2.4 | 64 | 130 | -12 | i | 0.79

# Following part
SMILES,RGS16-Gao,GALR2 ag,INS promoter inh,INS promoter inh cell count,PKD1 kinase inh,HSV replic up,HSV replic up primary fold
Clc1ccc2ncc(-c3nnnn3-c3ccccc3)c(-c3ccccc3)c2c1,97,-2.4,.,.,-5,i,1.2
N#CCSc1ncnc2ccccc12,97,.,.,.,-6,i,1.1
COc1cccc(CSc2nnc(C(F)(F)F)n2Cc2ccc(F)cc2)c1,0.4*,-0.3,-88,118,-9,i,1.1
CCOCc1nnc(NC(=O)c2ccc(NC(C)=O)cc2)s1,58,.,.,.,3,i,0.86
COc1ccc(OCC(=O)Nc2ccncc2)cc1,108,.,.,.,.,i,0.87
COc1ccc(-c2noc(CSc3nc4sc(C)c(C)c4c(=O)n3-c3ccccc3)n2)cc1OC,106,-2.2,.,.,-2,i,0.84
CCOc1ccc(CC(=O)NCC2(N3CCCCC3)CCCCC2)cc1,106,.,.,.,-5,i,1
COc1ccccc1NC(=O)CSc1nnc(C2CCCCC2)o1,88,-2.4,-43,99,-1,i,0.85
CC(C)C(CC(=O)NCc1ccco1)c1ccco1 (centres undefined),132,-2.7,18,94,-6,i,1
Cc1nc2cc3ccccc3cc2c(=O)[nH]1,89,-0.4,5,107,-1,i,1.1
CCN(Cc1ccccc1)c1ccc(/C=N/NC(=O)c2cccc(S(=O)(=O)N3CCOCC3)c2)cc1,69,1.0,0,103,-14,i,0.93
CN(CCOC(=O)c1ccccc1)Cc1ccccc1,114,-0.1,-27,128,-4,i,1
CCCc1cc2c(cc1NC(=O)c1ccccc1Cl)OCO2,99,-1.0,.,.,-11,i,1
Cc1ccc(NC(=O)C2C3C=CC4(CN(Cc5cccnc5)C(=O)C24)O3)cc1F (centres undefined),103,-1.3,.,.,-1,i,0.91
CC1CCc2c(sc3ncnc(N4CCOCC4)c23)C1 (centres undefined),102,-0.2,32,126,-1,i,0.82
CCCNC(=O)CN(C1CCCCC1)S(C)(=O)=O,107,-1.7,-21,136,0,i,1
CNc1nnc(CSc2nc3ccccc3s2)s1,113,0.4,50,116,7,i,0.9
Cc1ccc(OCC(O)Cn2c(N)nc3c2c(=O)n(C)c(=O)n3C)cc1 (centres undefined),100,.,.,.,-3,i,0.99
O=C(O)CC1(CC(=O)NCc2ccccn2)CCCCC1,101,.,.,.,.,i,0.73
CCCCOC(=O)N1CCOCCOCCOCCOCC1,108,.,.,.,.,i,1.5
COc1ccc(O)c(C2NC(CC(C)C)(C(=O)O)C3C(=O)N(Cc4ccccc4)C(=O)C23)c1 (centres undefined),126,-1.2,4,146,-6,i,1.2
CCN(CC)C(=O)c1cc2sc3ccccc3c2s1,104,-1.7,57,84,-5,i,0.93
O=C(Nc1cccc(C(F)(F)F)c1)c1cccnc1,97,-1.6,20,125,0,i,0.75
O=C(Nc1ccccc1C(F)(F)F)NC1CCCCCCC1,99,0.6,-57,49,-4,i,0.9
CCN(CC)S(=O)(=O)c1ccc(C(=O)Nc2nnc(-c3ccco3)o2)cc1,90,.,.,.,10,i,0.98

# Shown as labelled records: entries from further up.
structure: CCCNC(=O)CN(C1CCCCC1)S(C)(=O)=O
  RGS16-Gao: 107 | GALR2 ag: -1.7 | INS promoter inh: -21 | INS promoter inh cell count: 136 | PKD1 kinase inh: 0 | HSV replic up: i | HSV replic up primary fold: 1
structure: CNc1nnc(CSc2nc3ccccc3s2)s1
  RGS16-Gao: 113 | GALR2 ag: 0.4 | INS promoter inh: 50 | INS promoter inh cell count: 116 | PKD1 kinase inh: 7 | HSV replic up: i | HSV replic up primary fold: 0.9
structure: Cc1ccc(OCC(O)Cn2c(N)nc3c2c(=O)n(C)c(=O)n3C)cc1 (centres undefined)
  RGS16-Gao: 100 | GALR2 ag: . | INS promoter inh: . | INS promoter inh cell count: . | PKD1 kinase inh: -3 | HSV replic up: i | HSV replic up primary fold: 0.99
structure: O=C(O)CC1(CC(=O)NCc2ccccn2)CCCCC1
  RGS16-Gao: 101 | GALR2 ag: . | INS promoter inh: . | INS promoter inh cell count: . | PKD1 kinase inh: . | HSV replic up: i | HSV replic up primary fold: 0.73

# Next structures.
SMILES,RGS16-Gao,GALR2 ag,INS promoter inh,INS promoter inh cell count,PKD1 kinase inh,HSV replic up,HSV replic up primary fold
O=C(Cn1nnc(-c2cccs2)n1)NCc1ccccc1,101,.,32,118,-2,i,1.1
O=C(N/N=C/c1ccc(N2CCCC2)c([N+](=O)[O-])c1)c1cccnc1,102,.,.,.,4,i,1.2
Cc1ccc(Nc2nc(N)nc(CN3CCCCCC3)n2)c(C)c1,102,-1.5,30,133,-1,i,0.94
CC(NCC(O)c1ccc([N+](=O)[O-])cc1)C12CC3CC(CC(C3)C1)C2 (centres undefined),102,.,.,.,.,i,0.96
CCOC(=O)c1ccc(-n2c(N)c(C(=O)NCc3ccco3)sc2=S)cc1,100,-2.4,-73,67,-36,i,0.73
COc1ccc(Nc2cc(=O)oc3ccccc23)cc1,106,-0.4,.,.,-2,i,0.88
O=c1/c(=C\c2ccc(O)cc2)sc2n1C(c1ccccc1)C(c1ccccc1)=NN=2 (centres undefined),101,-2.1,3,69,-6,?,.
Cc1cc(C)n(-c2nc3c(c(=O)[nH]c(=O)n3C)n2CC(C)C)n1,112,-0.7,23,94,-12,i,0.87
CCCc1c(C(=O)NNc2cccc(Cl)c2)cnn1-c1ccccc1,102,.,.,.,.,i,0.97
CCCC1=C(C(=O)OCC)C(c2cc(Cl)cc(OC)c2OCC(=O)OCC)NC(=O)N1 (centres undefined),102,-1.2,7,83,-2,i,0.86
Cc1ccccc1OCCOC(=O)c1nc2nccc(C)n2n1,112,.,-50,101,4,i,0.94
Cc1ccccc1/C=c1\s/c(=C\C(=O)C(C)(C)C)[nH]c1=O,97,-0.2,-21,83,-4,i,0.85
Cc1ccc(Nc2ncnc3ccccc23)cc1,108,.,-421,77,-5,i,0.96
CC1(C)CC(=O)c2cc(OCC(=O)NCCCN3CCN(c4ccc(F)cc4)CC3)ccc2O1,103,-0.3,-81,68,-18,i,0.98
NNC(=O)Cn1cnc2ccccc21,102,.,.,.,-5,i,0.95
CCn1ncc(C(=O)Nc2cc(C)on2)c1C,96,-0.7,.,.,0,i,0.91
Cc1ccc(CNS(=O)(=O)c2ccc3c(c2)CCN3C(=O)CCCC(=O)O)cc1,100,.,.,.,-2,i,0.6
O=C(NC1CCCC1)c1sc(=S)n2c1[nH]c(=O)c1ccccc12,99,-0.1,.,.,-14,i,0.88
C=CCNc1sc(C(=O)C2CC2)c(N)c1C#N,224,-0.7,.,.,12,i,1.1
CCOC(=O)c1cnc2c(C(=O)OC)cccc2c1NCc1ccco1,101,-0.1,50,127,2,i,0.88
CCOc1ccc2nc(COC(=O)c3ccncc3)c(C(=O)c3ccccc3)[n+]([O-])c2c1,104,.,.,.,.,i,1.1
Fc1ccc(N2CCN(c3nnnn3-c3ccccc3)CC2)cc1,112,.,-114,98,-3,i,0.98
O=C(NCc1ccccc1)c1ccc2c(c1)C(=O)N(CC1CCCO1)C2=O (centres undefined),89,-0.6,-56,115,-1,i,0.86
CC(=O)Nc1cccc(-c2nc3ccccc3[nH]2)c1,101,.,21,102,-4,i,0.91
O=C(COC(=O)/C=C/C(=O)OCC(=O)Nc1ccccc1F)Nc1ccccc1F,109,.,.,.,.,i,0.99
SMILES,RGS16-Gao,GALR2 ag,INS promoter inh,INS promoter inh cell count,PKD1 kinase inh,HSV replic up,HSV replic up primary fold
Cc1ccc(OCCOCCN2CCN(C)CC2)c([N+](=O)[O-])c1,106,.,.,.,5,i,0.98
Cc1ccc(N2C(=O)CC(Sc3cccs3)C2=O)cc1 (centres undefined),102,.,.,.,.,i,1.1
O=C(NCc1cccs1)c1ccccc1,371,-3.4,5,103,-12,i,0.96
COc1ccc(S(=O)(=O)Cc2ccc(C(=O)N3CCN(c4cc(Cl)ccc4C)CC3)o2)cc1,97,-4.5,.,.,4,i,0.87
COC(=O)C1C(=O)C=C(Nc2ccc(F)cc2F)CC1c1ccc(OC)cc1 (centres undefined),122,0.0,-50,95,12,i,1
CCN(CC)CCCNC(=O)c1ccc(Cl)c(S(=O)(=O)Nc2ccccc2OC)c1,72,0.3,.,.,5,i,0.82
CCOc1ccc(-n2cc(C(=O)N3CCC(C)CC3)c3cc(OC)c(OC)cc3c2=O)cc1,92,-0.7,0,75,-11,i,1
CCCCn1c2nc3ccccc3nc2c2c(=O)n(CCC(C)C)cnc21,102,-0.7,.,.,5,i,0.89
CCOC(=O)Cn1c(=NC(=O)c2cccs2)sc2cc(C(=O)OC)ccc21,63,14*,32,97,1,i,0.86
Brc1ccccc1C1=Nn2c(nnc2-c2ccco2)SC1,95,.,.,.,.,i,0.85
O=C1N[C@@H](Cc2ccccc2)C(=O)N1CCN1CCOCC1,100,-0.8,67,110,1,i,0.94
Cc1nc(N2CCOCC2)c2c(C)c(C(=O)Nc3ccccc3C(F)(F)F)sc2n1,99,.,21,117,-8,i,0.9
CCCNC(=O)C12CCC(C)(C(=O)O1)C2(C)C (centres undefined),96,.,.,.,.,i,0.98
